Six1-Eya2 inh = blocks human Six1 binding to Eya2; Q15475+O00167; AlphaScreen GST-Six1/His-Eya2 binding, biochemical; active compounds read low; control for the full effect not named in the record; activity change, % (no concentration beside the values); AID 651725; 360,000 tested, 0.56% active; in the data active = activity change below about -65%; inconclusive = about -30% to -65%; inactive = above about -30%; further: on the % scale 0 is the no-effect control and ±100 the full control effect
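GST-Six1 + His-Eya2 (5X stock: 250/500 nM); Tris pH 8.0, 300 mM NaCl, 0.05% BSA, 0.02% Tween 20; GSH donor/Ni acceptor beads; 1 h 37 °C dark; AlphaScreen readout.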
TRPML1 inh = human mucolipin-1 channel inhibition; Q9GZU1; TRPML1-inducible cells, Ca2+ dye fluorescence, FDSS; active compounds read low; inhibition of EC80 agonist-evoked calcium signal; activity change, negative = inhibition, % (test concentration not listed); 390,000 tested, 0.02% active; AID 624415; in the data active means activity change below about -50%; inconclusive means about -30% to -50%; inactive means above about -30%;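 further: stimulus is agonist 54-4 at its EC80 concentration; on the % scale 0 is the no-effect control and ±100 the full control effect; compound concentration not given in the record; the text of the record puts the active cut at -80%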
Target sequence (Q9GZU1 whole entry, looked up): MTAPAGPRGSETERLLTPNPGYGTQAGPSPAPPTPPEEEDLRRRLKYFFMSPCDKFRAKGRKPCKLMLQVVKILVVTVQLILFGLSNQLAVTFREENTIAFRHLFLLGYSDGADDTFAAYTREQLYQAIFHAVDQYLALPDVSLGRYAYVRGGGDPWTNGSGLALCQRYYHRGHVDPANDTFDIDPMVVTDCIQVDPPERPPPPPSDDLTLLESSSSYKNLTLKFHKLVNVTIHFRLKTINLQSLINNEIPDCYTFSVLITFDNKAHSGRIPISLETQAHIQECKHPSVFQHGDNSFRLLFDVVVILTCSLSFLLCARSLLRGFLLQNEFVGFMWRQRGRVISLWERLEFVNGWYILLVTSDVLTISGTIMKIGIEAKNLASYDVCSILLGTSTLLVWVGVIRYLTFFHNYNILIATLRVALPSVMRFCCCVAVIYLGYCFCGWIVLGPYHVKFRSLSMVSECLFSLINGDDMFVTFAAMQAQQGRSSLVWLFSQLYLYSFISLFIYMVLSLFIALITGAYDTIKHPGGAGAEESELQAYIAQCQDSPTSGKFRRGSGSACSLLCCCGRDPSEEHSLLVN
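Tet-induced TRPML1-DL cells loaded with Ca8 no-wash calcium dye were read kinetically on FDSS. Compound addition was followed by EC80 agonist 54-4 (4 uM final); inhibition was read over 110 s.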
TRPML1 agonist = activates the human TRPML1 channel; TRPML1-expressing cells, Ca2+ dye fluorescence, FDSS; host cell line not named in the record; reference of the full effect not given here; activation, % (concentration not given with the values); 410,000 tested, 0.12% active; AID 624414; in the data active = activation above about 50%; inconclusive = about 30% to 50%; inactive = below about 30%; further: 0% is about no effect; the text of the record puts the active cut at 80%
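Tetracycline-induced TRPML1-DL cells are seeded and incubated overnight before loading with a no-wash Ca2+ dye and quencher. Agonist activity is taken from the 110 s fluorescence read following compound pin-transfer on an FDSS, before EC80 54-4 challenge.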
D2 PAM = potentiates the human D2 dopamine receptor allosterically; potentiation, % (concentration not given with the values); P14416; DiscoveRx D2 beta-arrestin cells, luminescence, 90 min; 100% = 57 uM dopamine signal; 360,000 tested, 0.23% active; active = potentiation of 50% or more; inconclusive = 30% to 50%; inactive = 30% or less;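 further: compound concentration not given in the record; tested on top of an EC20 dose of dopamine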
Target sequence (P14416 whole entry, looked up): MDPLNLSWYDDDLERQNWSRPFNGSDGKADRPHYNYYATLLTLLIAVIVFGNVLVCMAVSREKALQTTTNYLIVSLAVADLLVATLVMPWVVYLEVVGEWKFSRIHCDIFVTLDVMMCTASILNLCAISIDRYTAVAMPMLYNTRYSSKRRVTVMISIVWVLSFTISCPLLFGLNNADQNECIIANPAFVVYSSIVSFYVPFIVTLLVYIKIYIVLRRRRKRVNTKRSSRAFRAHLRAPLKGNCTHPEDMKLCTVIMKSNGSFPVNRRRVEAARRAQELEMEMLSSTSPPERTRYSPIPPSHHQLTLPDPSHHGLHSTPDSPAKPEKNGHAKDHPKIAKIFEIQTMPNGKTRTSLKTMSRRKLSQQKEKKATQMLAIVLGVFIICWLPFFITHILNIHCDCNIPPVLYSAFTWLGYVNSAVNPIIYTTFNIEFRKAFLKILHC
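D2 cells co-treated with compound plus 50 nM dopamine (EC20) for 90 min at 37 deg C to detect potentiation. Beta-arrestin recruitment was read as enzyme-fragment luminescence after 1 h at ambient temperature. Full response was set by 57 uM dopamine.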
D2 ag = human D2 receptor agonism in beta-arrestin assay | 360,000 tested, 0.084% active | activation, % (no concentration beside the values) | DiscoveRx PathHunter D2 beta-arrestin, luminescence, 90 min; 100% = 57 uM dopamine signal | P14416; in the data active = activation above about 40%; inconclusive = about 15% to 40%; inactive = below about 15%; further: compound concentration not given in the record; the text of the record calls up to 30% inactive
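DiscoveRx PathHunter D2 beta-arrestin cells (2,100/well) attached overnight, then compound-stimulated 90 min at 37 C in HBSS/10 mM HEPES/0.1% Tween-20 buffer; beta-galactosidase complementation read by luminescence after 1 h at ambient temperature. Dopamine 57 uM final (EC100) as control.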
PINK1 modulator = PINK1 expression modulation. PINK1 immunofluorescence, high-content cytometry, 24 h. Potency, µM (top dose mostly 76.6 µM), for inactives: at the top dose activation (PINK1 increase), hits mostly activators. 410,000 tested, 0.2% active. AID 624263; active = well fitted activation curve with a large enough effect; inconclusive = small, poorly fitted or top-dose-only effect; inactive = flat fitted curve, though single readings scatter; cell line not stated here;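 further: potency means the concentration at half of the fitted maximal effect; % of control where 0% means no effect; nearly all actives have a fitted effect of over 65% in size; a mitochondrial uncoupler was the plate control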
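Cells are seeded, rested 12 hours, then given compound at five concentrations or DMSO for 24 hours. After fixation, blocking and antibody staining, PINK1 amount and mitochondrial localization are scored; CCCP serves as control.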
Numbers without * were called inactive; ? = inconclusive; / = not tested or not shown; & = joins results of further samples; [ ] = dose if it differs, or a comment.

smiles	Six1-Eya2 inh	TRPML1 inh	TRPML1 agonist	D2 PAM	D2 ag	PINK1 modulator
CCc1ccc(C(=O)NNC(=O)CN2C(=O)NC(CC)(c3ccccc3)C2=O)cc1 (stereo not given)	-9	27	-0.5	-4	-1.8	3.5%
CC(C)=CC(=O)OCC(=O)NC(=O)NC(C)(C)C	3	11	0.6	4	-1.1	-0.4%
CCOc1ccc(NS(=O)(=O)c2ccc(-c3ccc(=O)[nH]n3)o2)cc1	-10	2	0.5	-33	15	-1.5%
CCOC(=O)C(CC)n1nc(C)n2c(cc3occc32)c1=O (stereo not given)	-1	31&-5	0.9&0.8	1	-3.1	-0.7%&-3.5%
COc1ccc(NS(=O)(=O)c2cccc(C(=O)NNC(=O)c3ccc(NC(C)=O)cc3)c2)cc1	6	2	0.3	-13	-3.7	0.2%
CCn1c(NCc2ccco2)nc2ccccc21	1	25	-0.3	-7	-1.7	2.2%
CC(C)C[C@H]1CNC(=O)C(=O)N1C[C@H]1CCCN1C[C@H](CC(C)C)N1C[C@H](Cc2ccccc2)N(CC2CCCCC2)C(=O)C1=O	19	/	-0.9	/	/	0.6%
Cc1ccc(-c2cc(C(=O)N3CCOCC3)c3ccccc3n2)cc1	-1	16	-0.2	5	-2.2	-0.9%

Three compounds picked at random from those above, as already listed:
smiles	Six1-Eya2 inh	TRPML1 inh	TRPML1 agonist	D2 PAM	D2 ag	PINK1 modulator
CCn1c(NCc2ccco2)nc2ccccc21	1	25	-0.3	-7	-1.7	2.2%
CCOc1ccc(NS(=O)(=O)c2ccc(-c3ccc(=O)[nH]n3)o2)cc1	-10	2	0.5	-33	15	-1.5%
CCc1ccc(C(=O)NNC(=O)CN2C(=O)NC(CC)(c3ccccc3)C2=O)cc1 (stereo not given)	-9	27	-0.5	-4	-1.8	3.5%

(continued)
smiles	Six1-Eya2 inh	TRPML1 inh	TRPML1 agonist	D2 PAM	D2 ag	PINK1 modulator
COc1cc(C(=O)N2CCC(c3nc4ccccc4o3)CC2)cc(OC)c1OC	/	14	2.1	/	/	1.6%
CCC1CN(C(=O)Nc2cccc3c2CCCC3)c2ccccc2O1 (stereo not given)	/	-6	0.9	/	/	1.0%
O=C1OC(c2cccc([N+](=O)[O-])c2)C2(CCCC2)C(=O)C12CCCCC2 (stereo not given)	-7	91	0.5	-17	3.2	-0.1%
Cc1ccc(NC(=O)Cn2nc(-c3ccncc3)ccc2=O)cc1Cl	/	3	-0.7	/	/	0.6%
CC1CC(C)CN(CCOc2cccc3ccccc23)C1 (stereo not given)	4	-7	0.3	-25	1.7	6.3%
COc1cc(CNC(=O)c2cnc(SC)nc2-c2ccccc2)cc(OC)c1OC	/	-14	1.9	/	/	2.0%
COc1cccc2cc(C(=O)N3CCN(c4ccccc4F)CC3)c(=O)oc12	-4	3	2.1	9	-0.4	-0.4%
O=C(Nc1ccc(S(=O)(=O)Nc2nccs2)cc1)c1cc(-c2ccccc2Cl)nc2ccccc12	-13	-8	0.4	4	1.2	-1.5%
COc1ccccc1CNc1ccc2c(c1)CCC2	-14	11	-0.1	-4	-2.1	?
COc1ccc(/C(C)=N/NC(=S)NCCc2ccccc2)cc1	-15	-3	2.2	-8	-1.8	-0.4%
CCN1CCN(c2ccc(NC(=O)c3ccco3)cc2)CC1	5	-1	0.2	-23	-5.5	0.8%
S=C(Nc1ccccc1)Nc1ccc(OCc2ccc(Cl)cc2Cl)cc1	8	-4	-0.9	-12	-3.7	8.1%
COc1cc(C(=O)Nc2cccc(-c3nc4ncccc4o3)c2C)cc(OC)c1OC	12	-3	-0.4	5	-0.8	7.6%
CC1CN(S(=O)(=O)c2ccc(C(=O)N3c4ccccc4CC3C)cc2)CC(C)O1 (stereo not given)	2	-10	-0.5	-3	-3.8	7.2%
Cc1nnc(SCC(=O)Nc2cccc(S(=O)(=O)N3CCCC3)c2)n1C1CC1	0	8	0.1	-8	0.1	-1.0%
O=c1oc2ccc3ccccc3c2cc1-c1nnc(-c2ccccc2)o1	11	-13	0.3	-2	1.5	17%
CN(C)CCCO[C@@H]1[C@H]2OC(C)(C)O[C@H]2O[C@@H]1[C@H](O)CO	2	-7	0.3	-4	-0.4	0.3%
COc1cc(C(=O)N2CCCN(c3nc4cc(C)ccc4cc3C#N)CC2)cc(OC)c1OC	6	3	-0.5	-6	0.7	4.4%[38.3 µM]
COc1ccc2c(c1)c(=O)c(C(=O)c1ccccc1)cn2Cc1ccccc1	-3	-3	1.2	1	-0.9	6.6%
COc1cccc(CN2CC(C(=O)NCc3cccc(N4CCCC4)c3)CCC2=O)c1 (stereo not given)	-10	-1	-1.2	-6	-1.6	-1.4%
COc1ccccc1CNC(=O)CN1C(=O)CCCc2ccccc21	/	-9	-0.2	/	/	1.0%
O=C(O)c1nsc(Cl)c1Cl	3	13	-0.8	-1	-1.8	-0.7%
CC(=O)Nc1ccc(S(=O)(=O)Oc2ccc(/C=N/N=C3/NC(=O)C(CC(=O)O)S3)cc2)cc1 (stereo not given)	-12	-10	2.5	1	-1.1	0.5%
Cn1cnc([N+](=O)[O-])c1C(=O)Nc1cccc([N+](=O)[O-])c1	-4	18	4.7	20	-0.1	4.7%
CC(C(=O)O)c1ccc(C(=O)c2ccccc2)s1 (stereo not given)	3	-4	-0.4	-12	-7.4	-0.4%
CCOc1ccccc1NC(=O)COC(=O)/C=C/c1ccc(OC)c(OC)c1	-12	23	0.9	0	4.6	2.0%
Cc1ccc2cc(NC(=O)C3(C)CCN(C)C3)ccc2n1 (stereo not given)	5	/	-0.2	0	7.8	1.3%
CCc1nc2c(OCc3ccc(F)c(F)c3)cccn2c1N(C)C(=O)c1ccco1	-6	/	-1.5	1	7.3	2.9%
COc1ccc(/C=C(\C#N)C(=O)NCC(c2ccc(F)cc2)N2CCOCC2)cc1 (stereo not given)	-5	/	/	0	-3.1	1.3%
O=C(NCCN1CCNC1=O)C1CCC(=O)N(Cc2cccc(C(F)(F)F)c2)C1 (stereo not given)	0	-6	0.1	-16	6.4	3.4%
COC(=O)c1cc(OC)c(OC)cc1NC(=O)CSc1nnnn1Cc1ccccc1	-2	33	1.4	26	1.5	-0.4%
CC(C)(C)NC(=O)C1c2ccccc2OCC(=O)N1CCc1ccccc1 (stereo not given)	0	/	-1.1	/	/	-0.7%
COc1cc(CO)cc(Br)c1OCC(=O)Nc1cccc2ccccc12	-1	0	0.2	-5	-1.5	0.3%
O=c1ccn(CCCBr)c(=O)[nH]1	4	26	0.1	-10	-3.8	0.8%
O=C(CSCc1ccc(Cl)cc1)Nc1ccccc1O	0	0	2.0	-5	2.3	2.8%
CCOC(=O)c1cc(-c2ccccc2)sc1NC(=O)COC	-1	-15	-0.3	1	-5.0	7.2%
Cc1ccsc1/C=N/NS(=O)(=O)c1ccc([N+](=O)[O-])cc1	22	3	-0.4	-23	-3.8	0.8%
O=C(OC1CC2CC1[C@H]1CCCCN1C2=O)N1CCN(C(=O)c2ccccc2)CC1 (stereo not given in full)	-1	/	-0.7	/	/	1.2%
COc1cccc(/C=C2/SC(=S)N(CC(=O)NNC(=O)c3ccccc3O)C2=O)c1	-10	14	1.5	-3	-3.7	0.8%
CC(=O)Nc1ccc(NC(=O)C2CCN(c3ccc(C(F)(F)F)cn3)CC2)cc1	11	-8	-0.1	4	-1.7	12%
CC1CCC(C(C)C)C(OCC(O)CNC(C)c2ccccc2)C1 (stereo not given)	9	0	0.8	-7	1.1	-1.0%
O=C(CN1CCC(n2nnc3cc(F)ccc32)CC1)Nc1ccc2c(c1)CCC2	-7	10	2.0	-8	2.7	-0.2%
O=C(c1ccco1)N1CCN(Cc2nc3ccccc3[nH]2)CC1	-10	13	-0.1	-4	4.0	1.5%
CCN1CCN(CCCNC(=O)c2cc3c(=O)oc4ccc(C)cc4c3s2)CC1	-6	-2	-1.1	-29	0.3	-2.0%
CCc1cccc(NC(=O)CCNS(=O)(=O)c2cccc3nonc23)c1	5	-5&-4	-0.3&2.5	-6	-1.9	2.0%&1.1%
N#CCCN(Cc1cccnc1)S(=O)(=O)c1ccc(S(=O)(=O)N2CCCCCC2)cc1	4	23	0.5	1	0.9	-2.9%[38.3 µM]
COc1cccc(N2CCN(S(=O)(=O)c3ccc(-n4cnnn4)cc3)CC2)c1	-6	8&27	-0.2&1.7	-6	0.1	0.8%&1.1%
O=C(Nc1ccc(Cl)cc1)c1nc[nH]c1C(=O)NCCN(CCNC(=O)c1[nH]cnc1C(=O)Nc1ccc(Cl)cc1)CCNC(=O)c1[nH]cnc1C(=O)Nc1ccc(Cl)cc1	4	-12	0.6	-2	-3.4	-0.4%
Cc1ccc(OCC(=O)Nc2nonc2-c2ccc(Br)cc2)cc1	/	4	1.5	/	/	1.1%
CC(C)CC(=O)NC(=S)Nc1ccccc1C(F)(F)F	10	11	-0.5	-23	-1.4	8.5%
O=S(Cc1ccc(Br)cc1)Cc1nnc(SCc2c(Cl)cccc2Cl)n1-c1ccccc1 (stereo not given)	3	-10	0.8	-26	-4.2	13%
CC(=O)Nc1ccccc1C(=O)C(=O)Nc1ccc(C(=O)N2CCOCC2)cc1	5	-8	0.6	-2	3.5	2.3%
Cc1ccc(C)c(NC(=O)CN(C)C(=O)Cc2ccc(Cl)cc2Cl)c1	-7	-6	0.0	-12	-3.4	2.0%
Cc1cccc(C(=O)OCC(=O)Nc2c(C)n(C)n(-c3ccccc3)c2=O)c1	19	-11	0.9	-15	-4.8	-0.5%
CC1CCCCN1S(=O)(=O)c1ccc(NC(=O)c2ccco2)cc1 (stereo not given)	-2	-11	0.6	10	5.4	-2.1%
CCN(CC)CCNC(=O)c1cc(-c2ccco2)nc2ccccc12	10	39	-0.8	-12	-10	1.2%

More entries
smiles	Six1-Eya2 inh	TRPML1 inh	TRPML1 agonist	D2 PAM	D2 ag	PINK1 modulator
COc1ccc(Cl)cc1C(=O)Nc1ccc(OCC(=O)N2CCOCC2)cc1	2	12	0.1	-9	-0.9	-1.8%
N=c1c2c(-c3ccccc3)c(-c3ccccc3)n(Cc3ccco3)c2ncn1Cc1ccccc1	-1	20	-0.7	3	-3.1&-0.1	-0.4%
CNc1nc(-c2cccs2)cc(C(F)(F)F)c1C#N	18	11	0.3	-18	-5.6	2.6%
CCOC(=O)C1CCCN(C(=O)c2cn(C)c3ccc(S(=O)(=O)N4CCCC4)cc3c2=O)C1 (stereo not given)	8	-1	-0.5	-14	-2.2	?
O=C(OCc1nc2ccccc2s1)c1ccccc1O	22	0	-0.4	-6	4.8	2.9%
Cc1c(OCC(=O)NCC2CCC(C(=O)O)CC2)ccc2c(-c3ccccc3)cc(=O)oc12 (stereo not given)	?	/	/	-9	-4.4	1.9%
COc1cccc(/C=N/NC(=O)C(=O)N2CCCC2)c1	3	-8	1.8	9	0.3	/
